# Compound activity (PubChem)
# T cruzi inh – inhibitors of intracellular T. cruzi growth, primary screen, luminescence, NIH3T3 host cells; inhibition, % (test concentration not listed); T. cruzi beta-gal in NIH3T3, 90 h; 1.4% of 300,000 active;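 active = mean inhibition across valid replicates above about 55%, limit read from the data; inconclusive = mean below that limit but half or more replicates reach it; inactive = mean below it, under half of replicates reach it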;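 also: signal also drops with host cell toxicity which is not excluded here; 0% = plate median of DMSO wells and 100% = zero luminescence signal; higher percent means less beta-gal luminescence so fewer parasites; stock transfer was 50 nL into about 50 µL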
# Calb FLC – C. albicans growth inhibition with fluconazole, primary screen, CaCi-2 strain, Alamar Blue fluorescence; C. albicans CaCi-2 (fluconazole-resistant clinical isolate) + fluconazole, 48 h; growth inhibition, % (no concentration beside the values); 0.57% of 300,000 active;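 active = most replicates above 75%; inconclusive = exactly half above 75%; inactive = most below 75%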;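 also: all wells also contain fluconazole at 8 µg/ml as a sub-toxic cotreatment; 0% = median of DMSO wells and 100% = median of geldanamycin control wells; wells of about 8 µL received 7.5 nL stock; the first replicate is given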
# RanGTP-Imp inh – inhibitors of RanGTP-importin-beta interaction, primary screen, biochemical, FRET, CFP-Ran, YFP-importin-beta, homogeneous. Ran GTPase (GTP-bound) - importin-beta complex. cell-free CFP-Ran/YFP-importin-beta FRET ratio. inhibition, % (no concentration beside the values). 1.1% of 300,000 active;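 active = most replicates above 15%; inconclusive = exactly half above 15%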;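 also: 0% = DMSO wells and 100% = Ran loaded with GDP instead of GTP; wells of about 40 µL received 100 nL stock; the first replicate is given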
# Bfl-1 A1 inh – caspase 3/7 activation in MEF A1-2A-BIM cells, primary screen, A1 inhibitor project, cell-based, luminescence, HTS. Caspase-Glo 3/7 luminescence, 3 h; percent of clofoctol response, vehicle zero. caspase activation, % (test concentration not listed). 0.066% of 330,000 active. AID 2462, 2010;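 active = over half of replicate activation scores above 10%, or exactly half above 10 with the replicate mean above 10; inconclusive = replicate mean below 10 yet half the replicates above 10; inactive = over half of replicates below 10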;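 also: wells of about 30 µL received 50 nL stock; many hits fall short of the cut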
# Ecoli rRNA inh – reduced GFP signal of wild-type E. coli, primary screen, bacterial rRNA inhibitor project, GFP/RFP fluorescence, OD600, single point; E. coli WT GFP vs humanized-ribosome RFP mutants, 24 h; stronger effect = lower value; DMSO median 0, no signal -100; GFP signal change (wild-type ribosome), % (test concentration not listed); 1.6% of 350,000 active; AID 720706, 2013;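 active = significant combined selectivity score with lowered wild-type GFP, culture density cut under 30%, mutant RFP and density less affected; inactive = any of these conditions unmet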; also: one replicate is shown; some compounds called inactive have numbers as strong as hits
# Beta apoptosis – inhibitors of cytokine-induced beta cell apoptosis, primary screen, luminescence | INS-1E cytokine-induced death, ATP luminescence, 48 h; percent of positive-control rescue, neutral wells zero | protection from apoptosis, % (concentration not given with the values) | 0.8% of 300,000 active | AID 435005, 2010;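 active = all replicates at 75% or more, or half of them and the mean; inconclusive = half reach 75% but not the mean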;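 also: 0% = cytokine-treated negative control wells and 100% = positive control rescue; higher means more ATP so stronger rescue from cytokine killing; wells of about 40 µL received 100 nL stock; the first replicate is given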
# AF4-AF9 inh – inhibitors of AF4 peptide binding to AF9, primary screen, biochemical, AlphaScreen, biotin-AF4 peptide, FLAG-AF9, single point | 0.47% of 350,000 active | Protein AF-9 (Homo sapiens), P42568 | inhibition, % at 10 µM | AID 651704, 2012;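 active = every replicate reaching a set inhibition limit, whatever the replicate mean, cut at about 25% in these data; inconclusive = mean inhibition reaches that limit but some replicates miss it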;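 also: 0% = plate neutral control median and 100% = total signal loss; the record names both 10 and 1 µM as test concentration; the first replicate is given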
# Target sequence (P42568 whole entry, looked up): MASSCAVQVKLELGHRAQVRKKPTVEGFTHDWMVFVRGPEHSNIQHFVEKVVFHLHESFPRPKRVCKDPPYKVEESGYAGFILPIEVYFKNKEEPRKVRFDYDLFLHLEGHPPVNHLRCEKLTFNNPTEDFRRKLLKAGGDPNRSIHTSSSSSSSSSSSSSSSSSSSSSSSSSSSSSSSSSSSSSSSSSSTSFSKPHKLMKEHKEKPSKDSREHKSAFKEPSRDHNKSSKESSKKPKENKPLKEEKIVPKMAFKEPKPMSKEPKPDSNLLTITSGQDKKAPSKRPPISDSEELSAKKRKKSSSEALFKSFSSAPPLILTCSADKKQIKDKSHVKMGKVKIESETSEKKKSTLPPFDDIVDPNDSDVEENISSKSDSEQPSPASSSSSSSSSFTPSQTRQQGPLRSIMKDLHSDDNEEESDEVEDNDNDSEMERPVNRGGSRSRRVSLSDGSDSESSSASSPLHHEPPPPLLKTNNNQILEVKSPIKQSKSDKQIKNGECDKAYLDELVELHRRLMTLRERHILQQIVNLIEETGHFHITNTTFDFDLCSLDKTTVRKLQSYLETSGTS
# Vif A3G – inhibitors of Vif binding to APOBEC3G peptide, primary screen, biochemical, TR-FRET, GST-Vif 1-94, biotin-A3G peptide, dose response retest (AID 1117319); 0.57% of 260,000 active; Virion infectivity factor (Human immunodeficiency virus type 1 group M subtype B (isolate …; one-dose inhibition, %; IC50 in µM for titrated hits; TR-FRET GST-Vif / biotin-A3G peptide binding; higher % means a stronger effect; test concentration not given here; strong numbers were not always called active;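 active = above the screen mean plus three standard deviations and confirmed in dose response; inconclusive = results disagree or hit not tested in dose response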;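 also: Vif residues 1-94 fused to GST binding biotinylated APOBEC3G peptide 110-148; 0% = full assay without inhibitor and 100% = GST in place of GST-Vif; retest series ran down from 100 µM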
# Ecoli rRNA inh OD600 – also measured in Ecoli rRNA inh; calls as there; OD600 change, %; measured here: OD600 growth;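 optical density of the mix in the first replicate; 0 = DMSO median and -100 = no signal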
# Ecoli rRNA inh RFP – further read-out of Ecoli rRNA inh, marked with its call; RFP signal change, %; measured here: RFP humanized mutant strains;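 first replicate; 0 = DMSO median and -100 = no signal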
# Active calls of the source: *; ? = inconclusive; / = no result given; & = joins results of further samples. Some of the compounds tested (hit frequency here may not be typical).
SMILES,T cruzi inh,Calb FLC,RanGTP-Imp inh,Bfl-1 A1 inh,Ecoli rRNA inh,Ecoli rRNA inh OD600,Ecoli rRNA inh RFP,Beta apoptosis,AF4-AF9 inh,Vif A3G
O=C(C1=COCCO1)N1CCN(S(=O)(=O)c2cccc(Cl)c2Cl)CC1,-5,3,4.9,0.4,/,/,/,0,/,7%
Cc1c(C)n(Cc2ccccc2)c2ncnc(N)c12,12,23,1.8,0.3,/,/,/,-4,/,1%
Cc1ccc(NS(=O)(=O)c2cc(C(=O)NCc3cccnc3)ccc2C)cc1,11,15,0.1,0.1,-3,-1,1.7,-4,1.4,/
CCOC(=O)C1=C(c2ccccc2)NC(=O)NC1c1cccc(OC)c1OC (centres undefined),-9,-9,-2.0,0.3,-2,11,1.7,/,-2.0,/
CN(C)c1ccc(C(=O)OCc2ccccc2)cc1,-3,-17,2.7,0.5,/,/,/,/,/,10%
Cc1ccc(NC(=O)CSc2nnc(-c3cnccn3)n2-c2ccccc2)cc1,-7,2,-3.3,0.7,/,/,/,12,/,-12%
CCc1nc(-c2ccc(C)nc2OC)no1,-11,-1,6.4,0.1,/,/,/,-1,/,72%
O=C(CCCN1C(=O)/C(=C/c2cccs2)SC1=S)NNC(=O)c1ccncc1,1,-6,-0.6,-1.4,8,9,1.4,-2,-3.4,-6%
CS(=O)(=O)N1CCN(Cc2ccc(C(F)(F)F)cc2)CC1,2,-1,?,-1.6,/,/,/,-3,/,-1%
O=C1CC(C(=O)NCc2ccccc2)N=C(N2CCCCC2)N1 (centres undefined),-7,-11,-5.8,0.0,/,/,/,-8,/,-3%
CCOc1ccc(C(C)=O)cc1CSc1nnc(-c2cccs2)n1CC1CCCO1 (centres undefined),36,5,2.6,0.7,/,/,/,10,/,6%
C=CCSc1nc(C)c(CC(=O)OCCCC)c(=O)[nH]1,-2,-5,-5.4,0.6,/,/,/,0,/,30%
O=C(Nc1nc2ccc(Cl)cc2s1)C1CC1,66*,-6,2.3,-0.1,3,1,1.3,/,-6.1,/
O=C(Cc1cccs1)NCc1ccc(F)cc1,-9,4,1.9,-0.1,/,/,/,-1,/,1%
CCCCn1c(-c2ccco2)n[nH]c1=S,-5,9,-0.2,0.5,/,/,/,-4,/,-5%
NC1=NC(c2cn[nH]c2-c2ccc(F)cc2)n2c(nc3ccccc32)N1 (centres undefined),-1,1,-1.1,0.0,2,8,-0.8,/,-1.1,-2%
CCc1c(OC(C)=O)c2ccccc2n(C)c1=O,-15,-8,-2.9,-0.3,-2,-7,1.7,-5,0.3,/
CN(C(=O)COC(=O)CCC1CCCCC1)c1c(N)n(Cc2ccccc2)c(=O)[nH]c1=O,-1,/,-4.1,-0.6,4,11,0.2,-6,-71,/
CC1CCN(CCn2c(=S)[nH]c3cc4c(cc3c2=O)OCO4)CC1,-3,0,2.5,0.0,-1,13,-0.8,4,-2.0,3%
O=C(COC(=O)c1cncc(Br)c1)NCC1CCCO1 (centres undefined),-5,-12,-2.6,-0.2,/,/,/,1,/,-2%
Cc1cc(F)ccc1NC(=O)c1cnccn1,-20,11,2.7,0.0,14,8,-1.7,-2,0.2,9%
COc1ccc(-c2[nH]ncc2CN2CCC(C(=O)N3CCOCC3)CC2)c(F)c1,-7,-20,0.2,0.5,14,3,0.2,-6,-0.8,-2%
CCOc1ccc(C(=O)Nc2ccccc2N2CCCC2)cc1,-4,0,-2.4,0.7,/,/,/,-5,/,19%
COc1ccc(CN2C(=O)c3ccccc3C2=O)cc1,-18,-1,-2.0,0.3,-7,4,1.9,/,5.4,/
COc1cccc(C(=O)NCC2CCN(c3ccc(S(=O)(=O)N4CCOCC4)cc3)CC2)c1,6,-21,-5.1,-0.6,/,/,/,6,/,23%
O=S(=O)(c1ccc(N2CCN(c3ccc(F)cc3)CC2)cc1)N1CCCC1,-19,33,1.5,-0.5,/,/,/,-3,/,-1%&-3%
CCc1nccn1CCC(=O)N1CCCC(N2CCN(c3cccc(Cl)c3)CC2)C1 (centres undefined),7,-17,-3.4,0.5,0,9,3.2,-3,2.3,-3%
CCOC(=O)N1CCN(S(=O)(=O)c2ccc(C(=O)N(CCN(CC)CC)c3nc4ccc(C)cc4s3)cc2)CC1,38,3,0.2,0.5,21,14,6.2,-5,-1.9,/
Cn1nc(-c2ccccc2)cc1NC(=O)CCCC(=O)O,1,18,3.5,0.4,15,8,1.5,-3,-0.6,-1%
CCn1c(SCC(=O)Nc2ccccc2)nnc1-c1ccc(S(=O)(=O)N2CCOCC2)cc1,10,-2,1.5,-0.5,/,/,/,-7,/,-4%
CCc1ccc(OCC(=O)Nc2cccc3c2CCCC3)cc1,-9,-7,2.9,1.2,/,/,/,-3,-7.9,-3%
O=c1[nH]c(CN2CCN(S(=O)(=O)c3ccc4c(c3)OCCO4)CC2)nc2sc3c(c12)CCCC3,44,6,?,0.3,/,/,/,2,/,6%
O=C(NCCc1c[nH]c2ccccc12)c1cnc2n(c1=O)CCS2,-1,-8,-3.5,0.5,5,11,-0.5,-1,-3.5,7%
Cc1cc(C(=O)OCCN2C(=O)c3ccccc3C2=O)c2ccccc2n1,-8,2,-0.7,-0.1,33,-5,8.6,-2,6.1,-2%
Cc1cccc(N(CC(=O)NC2CCCCC2)C(=O)c2csnn2)c1,-10,1,4.0,0.2,2,-3,3.9,-10,-2.1,-8%
Cc1cc(C(=O)N2CCN(c3ccccn3)CC2)no1,-10,-3,2.5,0.5,/,/,/,-5,/,30%
CC1(C)CC(=O)C(C=NCCN2CCN(C(=O)c3ccccc3)CC2)=C(O)C1,-1,-11,-1.4,-1.0,/,/,/,-5,/,-1%
O=C(O)c1ccc2c(=O)n3c(nc2c1)/C(=C/c1ccc(Cl)c([N+](=O)[O-])c1)CC3,1,6,?,-0.2,1,6,0.6,-5,3.3,/
O=C(O)c1ccc(N/N=C/c2ccc(-c3cc(Cl)ccc3Cl)o2)cc1,-16,7,83*,-3.1,-6,-4,2.7,-8,-5.6,8%
Cc1ccc(S(=O)(=O)N2CCC(C(=O)NCCC3=CCCCC3)CC2)cc1C,9,-13,1.3,0.4,3,3,-2.0,2,-3.3,0%
CCOC(=O)c1ccc(NC(=O)CSC(=S)N2CCOCC2)cc1,11,11,3.8,0.1,-9,-6,-0.4,-2,-0.9,-7%
COc1ccccc1Nc1nc2ccc(C)cc2n2cnnc12,18,50,2.5,-0.8,3,10,-2.2,-8,0.6,/
O=C(O)Cn1c(SCCOc2ccccc2F)nc2ccccc21,3,0,0.2,-0.5,/,/,/,-5,/,2%
COc1ccccc1NC(=O)CSc1nncn1N,-5,2,-1.9,3.0,-2,1,2.4,-9,3.0,/
CCOc1ccc(NS(=O)(=O)c2ccc3c(c2)CCN3C(=O)C2CCC2)cc1,13,-5,4.6,-0.1,-2,-11,13,2,3.5,2%
CCCCCC(=O)Nc1ccc(C(=O)CN2C(=O)NC3(CCCCCC3)C2=O)cc1,35,-8,2.7,-0.9,-1,2,1.1,4,-0.8,-9%
O=C(CCn1c(=O)c2cccn2c2cccnc21)NCc1cccc(Cl)c1,9,1,-2.3,0.1,6,12,0.9,0,0.4,-11%
CCOC(=O)/C(C#N)=C/c1c(N2CCN(c3ccc(OC)cc3)CC2)nc2c(C)cccn2c1=O,34,-10,20*,-0.8,-9,-2,-6.4,8,20,8%
CC(=O)c1ccc(NC(=S)N2CCN(c3cccc(Cl)c3)CC2)cc1,-26,2,3.0,-0.4,12,10,1.3,-2,-2.3,/
O=S(=O)(NC1CCCCCCC1)c1ccccc1,-17,3,0.8,1.4,-18,-24,-9.1,-3,-1.6,/
CCOC(=O)c1ccc(NC(=O)COC(=O)c2cccc(Oc3ccccc3)c2)cc1,-9,8,-5.4,-0.5,15,10,1.4,5,1.0,-4%
O=C(NCc1ccc2c(c1)OCO2)C1CCC(CNS(=O)(=O)c2ccc(Cl)cc2)CC1 (centres undefined),-4,-27,-0.5,0.4,14,9,-0.8,-9,3.8,31%
Cc1ccc(C(=O)NNC2=NC(C)(C)Cc3ccccc32)cc1,4,8,-0.2,1.6,-22,-28,-1.4,0,-2.6,?
c1ccc(N2CCN(Cc3cn4cccnc4n3)CC2)cc1,-4,5,-4.2,0.2,-2,5,-3.8,-2,5.7,2%
O=C(NC1CCCC1)C(c1ccccc1)N(C(=O)c1ccco1)C1CCCC1 (centres undefined),9,-12,-0.5,-1.6,/,/,/,4,/,-9%
O=C(CSc1nncs1)Nc1ccc(Cl)cc1C(F)(F)F,-5,1,-6.9,0.2,1,-1,-4.2,-7,-28,5%
CCOC(=O)C1CCCN(C(=O)COc2ccc(N(C)S(=O)(=O)c3ccc(C)cc3)cc2)C1 (centres undefined),19,-1,?,-0.4,-6,-6,-1.0,-5,5.1,-4%
CN(C)c1ccc(C2NC(=O)c3ccccc3N2)cc1 (centres undefined),10,24,3.0,-9.7,-8,1,-4.6,8,-0.6,/
O=C(NC1CCN(C(=S)NCc2ccco2)CC1)c1ccc(F)cc1,7,-8,4.5,0.9,/,/,/,-11,/,1%
CCOC(=O)CN1C(=O)C(=O)c2cc(C)ccc21,-11,-13,-1.6,-1.3,/,/,/,-5,/,-2%

# Following part
SMILES,T cruzi inh,Calb FLC,RanGTP-Imp inh,Bfl-1 A1 inh,Ecoli rRNA inh,Ecoli rRNA inh OD600,Ecoli rRNA inh RFP,Beta apoptosis,AF4-AF9 inh,Vif A3G
O=C(Nc1ccc(N2CCCC2)cc1)c1ccc2ccccc2c1,16,5,-0.8,-0.6,/,/,/,18,5.4,/
Nc1c(C(=O)NCc2ccco2)nnn1CC(=O)Nc1ccccc1,2,11,-4.9,0.7,/,/,/,0,/,20%
CCOc1ccccc1N(CC(=O)NC1CCCCC1)S(=O)(=O)c1ccccc1,26,-4,-0.2,-1.1,2,1,0.5,9,-3.9,/
CCOC(=O)COc1ccccc1/C=C1/NC(=O)NC1=O,-4,3,-0.4,1.0,-5,3,1.8,5,-6.9,-6%
CCOC(=O)c1cnc2ccccc2c1NCCO,15,-10,?,0.2,/,/,/,1,-0.3,4%
CC(Sc1ncnc2sc(-c3ccccc3)cc12)C(=O)NCC1CCCO1 (centres undefined),-1,-1,4.8,-0.5,-2,0,-0.2,-1,-1.1,0%
